TRPML1 agonist = human mucolipin-1 channel agonism | Q9GZU1 | TRPML1-expressing cells, Ca2+ dye fluorescence, FDSS; host cell line not named in the record; reference of the full effect not given here | activation, % (no concentration beside the values) | 410,000 tested, 0.12% active; in the data active = activation above about 50%; inconclusive = about 30% to 50%; inactive = below about 30%; note: 0% is about no effect; the text of the record puts the active cut at 80%
Target sequence (Q9GZU1 whole entry, looked up): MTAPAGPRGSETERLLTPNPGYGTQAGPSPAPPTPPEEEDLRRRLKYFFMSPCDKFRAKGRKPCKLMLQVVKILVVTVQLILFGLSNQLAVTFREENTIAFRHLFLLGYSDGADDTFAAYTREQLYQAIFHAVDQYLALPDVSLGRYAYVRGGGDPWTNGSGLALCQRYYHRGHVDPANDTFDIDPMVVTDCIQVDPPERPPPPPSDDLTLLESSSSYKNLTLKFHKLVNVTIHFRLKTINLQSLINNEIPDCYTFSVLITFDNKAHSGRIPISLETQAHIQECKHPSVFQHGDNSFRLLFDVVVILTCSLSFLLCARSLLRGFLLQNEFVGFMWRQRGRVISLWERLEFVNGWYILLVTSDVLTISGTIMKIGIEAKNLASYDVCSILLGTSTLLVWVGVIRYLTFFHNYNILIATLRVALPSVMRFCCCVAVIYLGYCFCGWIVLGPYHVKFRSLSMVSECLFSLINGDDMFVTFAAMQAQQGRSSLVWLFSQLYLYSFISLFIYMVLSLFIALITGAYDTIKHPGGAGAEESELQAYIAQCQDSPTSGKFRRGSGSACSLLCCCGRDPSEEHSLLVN
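Agonist activity was taken from a 110 s kinetic Ca2+ dye read on the FDSS after pinning compounds onto TRPML1-DL cells. The cells were seeded at 1,500/well with Tet inducer, incubated about 16 h, then dye-loaded at room temperature.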
gsp ag = gsp mutant agonism; Potency, µM (series often up to 76.9 µM), inactives show at the top dose activation (cAMP increase), hits mostly activators; 340,000 tested, 0.13% active; gsp mutant cells, cAMP HTRF, 30 min; control for the full effect not named in the record; AID 624287; active = well fitted activation curve with a large enough effect; inconclusive = small, poorly fitted or top-dose-only effect, or another doubt; inactive = no such curve, though single readings can be large or run the other way; cell line not stated here;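 note: phosphodiesterase inhibitor Ro 20-1724 added with compounds to block cAMP breakdown; potency is the fitted concentration of half-maximal effect; nearly all actives have a fitted effect of over 60% in size; about a fifth of the inactives were tested at one dose only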
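Cells in DMEM/10% FBS with G418 were pretreated with compounds in DMSO plus […] (300 uM stock) for 30 min at 37C. cAMP was measured by HTRF (cAMP-d2 plus anti-cAMP antibody-K) after 30 min at room temperature.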
Menin MLL FP FL = menin-MLL binding inhibition, fluorescein peptide; AID 1766; 290,000 tested, under 10 active; FP activity change, % at 61.4 µM; Fluorescence polarization, fluorescein-MLL peptide displacement from menin; inconclusive = falling polarisation curve, or a change in total fluorescence; inactive = total fluorescence flat and polarisation flat or rising; no compound was filed as active; the % refers to the polarisation; negative = inhibition;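 note: % of control where 0% means no effect; inhibitors lower the polarisation; unlabelled MLL peptide was the positive control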
TRPML1 inh = blocks the human TRPML1 channel | Q9GZU1 | TRPML1-inducible cells, Ca2+ dye fluorescence, FDSS; hits give low values; inhibition of EC80 agonist-evoked calcium signal | activity change, negative = inhibition, % (test concentration not listed) | 390,000 tested, 0.02% active; in the data active means activity change below about -50%; inconclusive means about -30% to -50%; inactive means above about -30%;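 note: stimulus is agonist 54-4 at its EC80 concentration; % is set by controls: 0 for no effect and ±100 for the full control effect; compound concentration not given in the record; the text of the record puts the active cut at -80%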
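Calcium fluorescence in TRPML1-DL cells induced overnight with Tet: a 110 s read after compound pin addition, then a 110 s antagonist read after challenge with 54-4 at 4 uM final (EC80).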
ClpP mod = qHTS Assay for Activators of ClpP; ATP-dependent Clp protease proteolytic subunit (Bacillus subtilis (strain 168)), P80244; purified B. subtilis ClpP, FRET peptide cleavage, 20 min; Potency, µM (doses to about 57.5 µM), inactives show at the highest dose activity change, negative = active; 340,000 tested, 1.9% active; AID 651965, 2013; active = well fitted falling curve with a large enough effect; inconclusive = small, poorly fitted or top-dose-only effect; inactive = no such curve, though single readings can be large or run the other way; note: potency is the fitted concentration of half-maximal effect; the source files actives as falling curves though it sought activators and does not explain the sign; nearly all actives have a fitted effect of over 65% in size; many hits overshoot -100%
Target sequence (P80244 whole entry, looked up): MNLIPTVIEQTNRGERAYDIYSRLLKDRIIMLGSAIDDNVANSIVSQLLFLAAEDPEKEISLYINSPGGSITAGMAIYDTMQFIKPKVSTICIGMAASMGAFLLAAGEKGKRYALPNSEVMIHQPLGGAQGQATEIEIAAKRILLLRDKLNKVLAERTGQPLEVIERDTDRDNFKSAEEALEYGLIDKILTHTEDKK
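ClpP 10 microg/mL final, pH 8 Tris/KCl buffer with BSA, glycerol, Tween-20; compound pinned in; FRET-FV substrate; RT 20 min; Ex320/Em430; ΔFRET vs ADEP 5.8 microM, DMSO, no enzyme.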
gsp antagonist = gsp mutant antagonism. gsp-mutant cells, cAMP HTRF, 30 min; control for the full effect not named in the record. Potency, µM (series often up to 76.9 µM), for the others: at the highest dose activity change, negative = inhibition, hits mostly inhibitors. 340,000 tested, 0.4% active. AID 624288; active = falling curve of any shape with a large fitted effect; inconclusive = falling curve, mostly with a smaller effect; inactive = flat or rising curve; cell line not stated here;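 note: intracellular cAMP measured with PDE inhibitor Ro 20-1724 present during compound exposure; potency is the fitted concentration of half-maximal effect; % is set by controls: 0 for no effect and ±100 for the full control effect; nearly all actives have a fitted effect of over 65% in size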
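Cells, 2000/well, grown 16–24 h in DMEM 10% FBS with 0.5 mg/ml G418, then compounds plus […] (300 uM addition stock), 30 min at 37C. cAMP read by HTRF (cAMP-d2 and anti-cAMP antibody-K in lysis buffer) after 30 min RT.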
* hit, by the source's call; ? = inconclusive; · = no result given; & = joins results of further samples; [ ] = another dose, or the depositor's remark.

entry	smiles	TRPML1 agonist	gsp ag	Menin MLL FP FL
1	Cc1ccc(-n2nc(C)c3c(C)c(CCC(=O)NCC4CCCO4)c(=O)n(C)c32)cc1 (centres undefined)	0.4	-6%	·
2	COCCN1CN=C(NS(=O)(=O)c2ccc(C)cc2)NC1	0.1&1.9	-3%	·
3	CCCn1c(SCc2nc(-c3ccc(OC)cc3OC)no2)nnc1-c1ccc(Cl)cc1	4.2	·	·
4	CCCCCOc1ccc(/C=C/C(=O)Nc2sc(C)c(C)c2C(=O)OCC)cc1OC	-0.2	·	·
5	CC(=O)Nc1nc2n(n1)C(c1ccc(F)cc1)C=C(c1ccc(Cl)cc1)N2 (centres undefined)	0.9	·	·
6	O=[N+]([O-])c1cccc(S(=O)(=O)c2ccc(NCCO)c([N+](=O)[O-])c2)c1	0.5	16%[15.4 µM]	0.5
7	O=C(CSc1nnc(-c2ccncc2)n1Cc1ccco1)Nc1nccs1	0.0	-6%	2.1
8	CC(C)CCN1CC(C(=O)NC(C)C)CC1=O (centres undefined)	0.3	-5%	-1.0

entry	TRPML1 inh	ClpP mod	gsp antagonist
1	0	-10%	-3%
2	-1&9	0.1%&1.3%	9%
3	13	-2.4%	·
4	6	-13%	·
5	-5	5.1%	·
6	12	·	·
7	-6	0.7%	0%
8	-4	0.6%	-2%

entry	smiles	TRPML1 agonist	gsp ag	Menin MLL FP FL
9	CC(C)[C@@H](NC(=O)C1CCN(C(=O)[C@@H]2CCCN2C(=O)OC(C)(C)C)CC1)C(=O)NCc1ccc(F)cc1	·	·	-4.0
10	Cc1ccc(CNC(=O)CCCOc2cc(=O)n(C)c3ccccc23)o1	-0.1	-28%	0.6
11	CCOCCCNC(=S)NCCCNc1nc2c(C)c(C)ccc2cc1C#N	-0.1	-51%[inhibitor]	-1.4
12	Cc1ccc(-c2cc(C(=O)NN3CCOCC3)c3cc(Br)ccc3n2)o1	0.6	14%[15.4 µM]	-8.8
13	CCc1cc(C(=O)NC2CCCN(Cc3ccccc3F)C2)n(C)n1 (centres undefined)	-0.8	-1%	-0.3
14	O=C(Cn1ccn(-c2ccc(F)c(Cl)c2)c(=O)c1=O)NCCc1ccccc1	0.0	14%[15.4 µM]	·
15	COCCNC(=O)c1ccc2c(=O)n(CCCN3CCCC3=O)c(=S)[nH]c2c1	-0.1	26%[15.4 µM]	-2.0
16	CC(C)CC(=O)Nc1ccc(C(=O)COC(=O)C2CCC2)cc1	1.3	-2%	·

entry	TRPML1 inh	ClpP mod	gsp antagonist
9	·	1.3%	7%
10	-7	-1.6%	3%
11	8	4.1%	-17%
12	4	0.5%	-6%
13	7	1.1%	-8%
14	29	·	-5%
15	-18	-1.8%	7%
16	-19	-3.1%	4%

Sorted by value in gsp ag (low to high): some entries from above.
| nr | molecule | gsp ag | Menin MLL FP FL | TRPML1 inh | gsp antagonist |
| --- | --- | --- | --- | --- | --- |
| 10 | Cc1ccc(CNC(=O)CCCOc2cc(=O)n(C)c3ccccc23)o1 | -28% | 0.6 | -7 | 3% |
| 16 | CC(C)CC(=O)Nc1ccc(C(=O)COC(=O)C2CCC2)cc1 | -2% | · | -19 | 4% |
| 13 | CCc1cc(C(=O)NC2CCCN(Cc3ccccc3F)C2)n(C)n1 (centres undefined) | -1% | -0.3 | 7 | -8% |

Look-ups from the entries so far.
Result of O=C(CSc1nnc(-c2ccncc2)n1Cc1ccco1)Nc1nccs1 in gsp ag: -6%
Result of COCCNC(=O)c1ccc2c(=O)n(CCCN3CCCC3=O)c(=S)[nH]c2c1 in gsp antagonist: 7%
Result of O=C(Cn1ccn(-c2ccc(F)c(Cl)c2)c(=O)c1=O)NCCc1ccccc1 in gsp antagonist: -5%
Result of CCCCCOc1ccc(/C=C/C(=O)Nc2sc(C)c(C)c2C(=O)OCC)cc1OC in ClpP mod: -13%

Continued.
entry	smiles	TRPML1 agonist	gsp ag	Menin MLL FP FL
17	N#CCC(=O)Nc1ccc(C(=O)OCC(=O)Nc2cc(-c3ccccc3)nn2-c2ccccc2)cc1	-0.3	-64%[inhibitor]	·
18	Cn1cc(S(=O)(=O)c2ccccc2)c(=O)c2cc(F)c(N3CCN(c4ccccc4)CC3)cc21	-0.7	·	·
19	O=C(NCc1ccc(F)cc1)C1CCCN1S(=O)(=O)c1ccccc1C(F)(F)F (centres undefined)	-0.1	?	·
20	Cc1cccc(C)c1OCc1nnc(SCC(=O)Nc2ccccc2F)o1	0.4	3%	-0.6
21	CCC(C(=O)Nc1cccc(OC)c1)n1nc(C)c2c(C)n(-c3ccccc3)nc2c1=O (centres undefined)	-1.5	?	·
22	COc1ccc(CNC(=O)C(=O)NCC2OCCN2S(=O)(=O)c2cccs2)cc1 (centres undefined)	-0.4	-10%	-2.1
23	O=C(Cn1ncc2c3ccccc3n(Cc3ccccc3)c2c1=O)N1CCN(c2ncccn2)CC1	1.2	-7%	0.3
24	Cc1cc(C(=O)COC(=O)c2ccc[nH]c2=O)c(C)n1C1CC1	0.3	4%[15.4 µM]	2.5

entry	TRPML1 inh	ClpP mod	gsp antagonist
17	11	-3.7%	·
18	-16	?	·
19	-3	-5.1%	5%
20	5	1.7%	-5%
21	-22	-1.3%	?
22	6	0.2%	5%
23	-3	32µM*	-4%
24	8	0.7%	11%

entry	smiles	TRPML1 agonist	gsp ag	Menin MLL FP FL
25	CCOc1ccc(CCNC(=O)CSc2nc3ncc(Cl)cc3[nH]2)cc1OCC	-0.1	-72%	·
26	CSc1ccccc1NC(=O)CN(c1ccccc1)S(=O)(=O)N(C)C	-0.6	?	?
27	Nc1ncnc(Nc2ccc(F)cc2)n1	-0.6	9%	5.2
28	CC1CCN(S(=O)(=O)c2cccc(-c3nnc(-c4cccnc4)o3)c2)CC1	1.2	-5%	2.1
29	CCOc1cc(C(=O)NCCc2sc(-c3ccc(F)cc3)nc2C)cc(OCC)c1OCC	2.3	·	·
30	COc1ccc(-c2nc3ncnn3cc2C)cc1F	0.3	7%[15.4 µM]	2.7
31	CCOC(=O)c1cnc(-n2nc(C)cc2C)nc1NCc1ccc2c(c1)OCO2	2.7	14%	0.4
32	CC(=O)N1N=C(c2ccc(C)cc2)OC1c1ccc(C(C)C)cc1 (centres undefined)	-1.1	7%	4.8

entry	TRPML1 inh	ClpP mod	gsp antagonist
25	5	-4.1%	-5%
26	44	-2.4%	2%
27	-28	-2.2%	2%
28	12	0.3%	-5%
29	2	-6.7%	·
30	20	-2.7%	3%
31	15	?	?
32	-3	-10%	-6%

entry	smiles	TRPML1 agonist	gsp ag	Menin MLL FP FL
33	CCOc1ccc(N(CC)C(=O)COc2cc(=O)n(C)c3ccccc23)cc1	2.3	9%	0.9
34	Cc1ccc(S(=O)(=O)NCc2ccc3[nH]c(C)cc3c2)cc1	0.2	-4%	-4.5
35	COc1cc(NC(=O)COC(=O)/C=C/c2ccccc2Cl)cc(OC)c1	3.1	8%	1.0
36	Nc1c(N(CCO)C(=O)COc2ccc(Cl)cc2)c(=O)[nH]c(=O)n1Cc1ccccc1	-0.6	7%	4.9
37	Cc1ccc(C(=O)Cn2c(NCCO)nc3ccccc32)cc1	0.7	-1%	-1.0
38	O=C(C(=O)N1CCN(c2cccc(Cl)c2)CC1)c1c[nH]c2ccccc12	0.2	1%	2.7
39	CN1C(C(=O)Nc2ccc(F)cc2F)=CC(c2ccco2)=NS1(=O)=O	-0.1&0.6	-19%	0.5
40	CCOc1ccccc1OCCOCCOc1ccccc1[N+](=O)[O-]	3.9	3%	·

entry	TRPML1 inh	ClpP mod	gsp antagonist
33	21	-2.9%	?
34	-10	0.7%	-9%
35	49	-4.8%	-12%
36	3	-1.3%	19%
37	-20	-3.0%	0%
38	-6	0.8%	-34%
39	31&-4	-0.7%&-3.3%	1%
40	24	0.6%	?

entry	smiles	TRPML1 agonist	gsp ag	Menin MLL FP FL
41	Clc1ccc(CCNc2nc3ccccc3s2)cc1	8.7	6%	-0.7
42	CC(C)(C)N(Cc1cc2ccccc2[nH]c1=O)C(=O)c1ccco1	0.5	-3%[15.4 µM]	-7.7
43	O=C(COC(=O)c1cnccn1)c1ccc(Cl)cc1	0.0	-1%[15.4 µM]	-6.1
44	COCCCNC(=O)c1ccc(CS(=O)(=O)c2ccccc2C)o1	1.1	-24%	-0.1
45	C/C(=N\NC(=O)c1ccccc1)c1c(C)[nH]n(-c2ccccc2)c1=O	-0.6	-81%[inhibitor]	-7.5
46	O=CN1CCc2scc[n+]2-c2ccccc21	-0.7	-16%	-1.6
47	Cc1nc2ccccc2n1S(=O)(=O)c1cc(C(=O)O)ccc1Cl	1.2	-21%	5.8
48	COc1ccc(CNC(=O)c2cnn3c(C)c(Cc4ccc(F)cc4)c(C)nc23)cc1	0.1	·	·

entry	TRPML1 inh	ClpP mod	gsp antagonist
41	-15	-1.6%	-7%
42	-7	·	-25%
43	-6	·	-2%
44	6	-0.3%	14%
45	-5	·	-9%
46	4	1.0%	3%
47	-2	-0.5%	7%
48	-9	4.1%	·

Down the list, as entered above.
TRPML1 inh, entries 41–48, in order: -15, -7, -6, 6, -5, 4, -2, -9

(cont.)
entry	smiles	TRPML1 agonist	gsp ag	Menin MLL FP FL
49	CCC(=O)OC1(C)C(=O)C=C2C=C(c3ccsc3)OC=C2C1=O (centres undefined)	-0.6	-21%	?
50	CC(=O)Nc1ccc(S(=O)(=O)NCC(=O)NCCCc2ccccc2)cc1	1.6	0%	0.6
51	O=C1N(CN2CCN(c3cccc(Cl)c3)CC2)c2ccccc2C12OCCCO2	3.5	-30%	3.5
52	CCCS(=O)(=O)N1CCCC(C(=O)N2CCOCC2)C1 (centres undefined)	-0.8	-36%[inhibitor]	-0.9
53	COCCC(=O)N1CCC(Oc2ccc(C(=O)N3C[C@H]4CC[C@H]3C4)cc2)CC1	-0.2	-12%	·
54	COc1ccc(-c2cc(C(=O)N3CCCCC3)c3ccccc3n2)cc1OC	2.3	19%	-1.2
55	CCOC(=O)c1c(NC(=O)c2cccs2)sc2c1CCC2	0.4	12%	1.3
56	O=C(C1CCN(S(=O)(=O)N2CCC3(CC2)OCCO3)CC1)N1CCC(Cc2ccccc2)CC1	0.7	-1%	-0.5
57	CC1(C)C2CCC(C2)C1C/C=N/NC(N)=S (centres undefined)	2.0	-5%[15.4 µM]	-2.3
58	Cc1cccc(-n2c3nc(=O)n(C)c(=O)c-3cc3c(Cl)cccc32)c1C	0.0	·	·

entry	TRPML1 inh	ClpP mod	gsp antagonist
49	-7	-1.4%	-9%
50	-22	·	7%
51	-14	0.5%	6%
52	15	-0.1%	-2%
53	-17	-10%	6%
54	-16	?	0%
55	4	-6.7%	4%
56	-9	-2.0%	5%
57	-5	·	17%
58	-3	-2.0%	·
